# HIV Env fusion: blocks HIV Env-driven cell-cell fusion. HeLa-JRFL Env/CEM21 cell fusion, luciferase. inhibition, % at 12.3 µM. hit rate 1.1% among 360,000;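 active = mean replicate inhibition score of at least 50 and every replicate individually at or above 50; inconclusive = only one of the two criteria met; inactive = mean below 50 and not all replicates reaching 50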;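 also: 0% = plate neutral controls and 100% = maraviroc near 300 nM; one replicate is shown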
# Rce1 inh: yeast Ras-converting enzyme inhibition. Q03530. yeast membranes, quenched prenylated peptide cleavage fluorescence. calls only. hit rate 0.27% among 290,000;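 active = fall in fluorescence gain of 50% or more versus controls, with final raw signal at or below 3038400; inconclusive = same 50% fall but final raw signal above 3038400; inactive = fall in fluorescence gain under 50%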;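 also: plate controls were neutral control wells for no effect and wells lacking membranes for full effect; tested at 10 µM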
# Target sequence (Q03530 whole entry, looked up): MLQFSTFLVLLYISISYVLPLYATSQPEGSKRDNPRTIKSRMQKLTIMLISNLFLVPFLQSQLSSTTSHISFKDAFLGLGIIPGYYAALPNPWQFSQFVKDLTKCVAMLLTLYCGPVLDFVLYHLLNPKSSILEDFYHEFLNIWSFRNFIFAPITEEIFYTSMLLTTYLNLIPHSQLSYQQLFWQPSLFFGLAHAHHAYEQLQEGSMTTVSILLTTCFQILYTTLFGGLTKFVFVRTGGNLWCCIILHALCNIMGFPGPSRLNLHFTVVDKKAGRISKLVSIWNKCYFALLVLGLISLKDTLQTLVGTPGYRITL
# PABP polyA inh: PABP-poly(A) binding inhibition. AID 2014. P11940. inhibition, % at 35 µM. PABP-poly(A) RNA binding, fluorescence polarization. hit rate 1% among 290,000;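 active = 50% or more with normal probe brightness, or confirmed in later tests; inconclusive = above 50% with abnormal brightness, or retests that disagree; inactive = below 50% or failed in later tests; about a fifth of its hits are not listed in these tables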;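 also: calls also rest on retests at 20 µM and on dose response follow-up; controls were probe without protein and protein plus probe with vehicle; some compounds called inactive have numbers as strong as hits; many hits fall short of the cut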
# CSC inhib: cancer stem cell inhibition | AID 2717 | cancer stem cell-like cells viability, luminescence | inhibition, % at 7.5 µM | hit rate 1.1% among 300,000;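 active = mean at 75% or more and at least half the replicates too; inconclusive = mean and replicates disagree; tested in HMLE shEcad cells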;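 also: 0% = median of negative and 100% = median of positive control wells; the first replicate is given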
# MT1-MMP act inh: inhibitors of human MT1-MMP activation; HT1080 RFP-PRO-GFP cells, GFP/RFP ratio fluorescence, overnight; percent of plate control window, DMSO zero; GFP/RFP ratio change, % at 20 µM; hit rate 0.061% among 360,000; AID 651647;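 active = GFP/RFP ratio change of at least 30% with cell ATP level not reduced by more than half and red fluorescence within 50% of control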; also: strong numbers were not always called active
#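 Read-out: GFP/RFP fluorescence ratio; Test system: RFP-PRO-GFP reporter HT1080 cells; Compound dosing: single-point 20 µM compound, 1% DMSO; Times: overnight compound exposure at 37 °C.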
# eIF4H inh: inhibitors of RNA binding by human eIF4H; Q15056; eIF4H fluorescence polarization binding assay; inhibition, % at 35 µM; hit rate 0.94% among 290,000; AID 2012;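 active = 50% or more with normal probe brightness, or confirmed in later tests; inconclusive = above 50% with abnormal brightness, or retests that disagree; inactive = below 50% or failed in later tests; about a fifth of its hits are not listed in these tables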;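 also: calls also rest on retests at 20 µM and on dose response follow-up; 0% = protein and probe with vehicle and 100% = probe without protein; strong numbers were not always called active; many hits fall short of the cut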
# UUG fidelity: yeast start codon fidelity modulation | S. cerevisiae UUG-firefly luciferase reporter, luminescence/redox ratio | hit rate 0.13% among 350,000 | activity score, % at 18.7 µM;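 active = replicate mean at a twofold rise or more, about +100% in these data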;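 also: firefly luciferase made from a UUG start codon reports start codon fidelity; reporter light over untreated wells divided by growth signal over untreated wells; some hits fall short of that in this replicate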
# MT1-MMP act inh RFP: further read-out of MT1-MMP act inh, marked with its call; RFP signal change, %; measured here: RFP expression control read;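 0 = vehicle wells; hits needed this value within 50% of zero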
# The depositor's hits bear a star; i = inactive; ? = inconclusive; · = not tested or not shown; & = joins results of further samples; [ ] = dose if it differs, or a comment. A portion of the library; count on the stated rates, not on these rows.
SMILES,HIV Env fusion,Rce1 inh,PABP polyA inh,CSC inhib,MT1-MMP act inh,MT1-MMP act inh RFP,eIF4H inh,UUG fidelity
CC(C)CCC1(CCNC(=O)c2cccs2)CCOC(C)(C)C1 (centres undefined),17,i,0,2,0,-4,-6,·
O=C(Nn1cnc2ccccc2c1=O)c1ccc(F)cc1Cl,·,i,4,3,-3,2,0,2
CCc1ccc(N2C(=O)Cc3c2nc(N)c(C#N)c3N)cc1,·,i,37,-12,0,0,24,-20
Cc1cc2nnc(SCC(=O)N(C)C3CCS(=O)(=O)C3)n2c2ccccc12 (centres undefined),2,·,8,-2,-5,-3,2,·
CC(OC(=O)C1CCN(S(=O)(=O)c2ccc(C(C)(C)C)cc2)CC1)C(=O)N(C)C1CCCCC1 (centres undefined),9,·,·,·,2,-15,·,0
COc1ccc(NC(=O)c2cccc(N3C(=O)C4CC=C(C)CC4C3=O)c2)c(OC)c1 (centres undefined),23,i,9,·,1,4,7,-26
COc1ccc(N2CCN(C(=O)c3ccc(S(=O)(=O)N4CCOCC4)cc3)CC2)cc1,-25,i,-8,-15,13,-2,-8,5
Cc1cccnc1NC(=O)CSc1ccc2c(c1)OCCO2,-7,·,·,-10,-1,1,·,-22
COc1ccc(N2CCN(Cc3cc(=O)oc4cc(-c5ccccc5)c(O)cc34)CC2)cc1,·,i,2,-6,-4,-3,4,-4
COCCN(C(=O)COC(=O)CC(C)c1ccccc1)c1c(N)n(Cc2ccccc2)c(=O)[nH]c1=O (centres undefined),-5,i,·,3,1,-1,·,·
Cc1ccc(SCC(=O)OC(C)C(=O)NC2(C#N)CCCCC2)cc1 (centres undefined),9,i,·,1,3,0,·,·
Cn1nc(C(F)(F)F)c(C#N)c1N1CCN(c2ccc(F)cc2)CC1,·,i,2,-16,-10,-20,-8,-7
CC1(C)C[C@@H](O)CC2(C1)C[C@]1(C)CC(O)[C@H]2C(C)(C)C1 (some centres undefined),24,i,·,-11,-1,0,·,2
CCOc1ccccc1N(CC(=O)NC1CCCC1)C(=O)CCCC(=O)Nc1ccccn1,·,i,4,-3,2,-1,-4,·
COc1ccc(C)cc1-n1nnnc1SCc1nc(N)nc(N(C)C)n1,-9,·,·,·,-3,-1,·,-10&-21
CCOC(=O)C1CCCN(C(=O)Nc2c(-c3ccccc3)noc2C)C1 (centres undefined),0,i,-6,-6,2,10,-2,-14
N#CCCN(C(=O)COC(=O)C1CCN(S(=O)(=O)c2ccc3c(c2)OCCO3)CC1)c1ccccc1,-78,·,·,-4,0,1,·,-12
CCOC(=O)C1CCN(C(=O)c2cc(OCC)c(OCC)c(OCC)c2)CC1,·,i,6,1,2,-2,7,6
O=C(NCc1ccccn1)C1Nc2ccc(C(F)(F)F)cc2C2C=CCC12 (centres undefined),16,i,·,-8,-3,3,·,-12
N#CCC(=O)N/N=C/c1coc2ccccc2c1=O,-24,i,-3,-2,-7,-1,29,·
Cc1nnc(SCC(=O)N(CC(C)C)c2c(N)n(CC(C)C)c(=O)[nH]c2=O)n1-c1ccccc1,-3,i,-4,-4,1,-1,2,·
N#Cc1cc(C(=O)c2ccccc2O)cn(-c2nccs2)c1=O,1,i,6,21,-81,-3,?,·
COc1ccc(N2CC(C)Cn3c2nc2c3c(=O)n(Cc3ccccc3)c(=O)n2C)c(OC)c1 (centres undefined),20,i,8,-30,9,-10,4,-2
C=CCOC(=O)C1=C(C)NC(C)=C(C(=O)OCC=C)C1/C=C/c1ccccc1,10,i,9,8,-19,-15,7,·
CC(=O)Nc1cccc(NC(=O)NC2CC(=O)N(c3ccc4c(c3)OCCO4)C2)c1 (centres undefined),2,·,·,·,1,4,·,-4
CCCCCCC#Cc1ccc2c(c1)COc1c3ccccc3nn1-2,1,i,7,21,-2,-3,-4,-14
CNc1ccc(OC)cc1-n1cnc(-c2ccc([N+](=O)[O-])cc2)c1,7,i,8,8,0,-2,15,-7
COc1cc(/C=C/C(=O)OCC(=O)NCc2ccc3c(c2)OCO3)cc(OC)c1OC,·,·,·,-12,4,1,·,-12
CCCCCN(C(=O)CCC(=O)OCc1cccc(F)c1)c1c(N)n(CCCC)c(=O)[nH]c1=O,1,i,·,-7,-9,-9,·,-13
COc1ccc(Cl)cc1NC(=O)CCNS(=O)(=O)c1cccc2nonc12,9,i,3,·,1,2,1,-4
O=C(CCC1CCCC1)N1CCN(S(=O)(=O)c2ccc(Br)cc2)CC1,-4,·,·,·,-7,-7,·,-11
O=C(NCCc1cccs1)C1CC(c2cccc([N+](=O)[O-])c2)=NO1 (centres undefined),12,i,-3,-12,-1,-1,0,-20
Cc1ccc(NC(=O)C(=O)NCCN2CCN(S(C)(=O)=O)CC2)cc1,1,i,2,-29,-1,3,-13,·
O=C(Nc1ccnn1C1CCN(Cc2ccc(C#CCCO)cc2)CC1)c1cccc(F)c1,9,i,2,-7,3,1,-2,-7
COc1ccc2c(c1)c(=O)cc(C)n2CC(=O)NCc1ccco1,·,i,12,-5,3,-4,17,-4
COc1ccc(C2c3ccc(O)cc3Oc3ncn(Cc4ccco4)c(=N)c32)cc1 (centres undefined),5,i,?,20,-31,2,?,·
CCCCOc1ccc(S(=O)(=O)NC(=O)C2(C)CCN2C(=O)Cc2ccccc2Cl)cc1 (centres undefined),-5,·,·,·,-2,4,·,2
CCOC(=O)N1CCN(CCC(=O)Nc2cccc(Cl)c2C)CC1,4,i,10,-10,-2,4,-8,-2
COc1cc(NC(C)CCc2ccccc2)cc(OC)c1OC (centres undefined),-58,i,-1,-12,3,1,-12,-5
CC(C)Cc1ccc(C#N)c(SCC(N)=O)n1,·,i,2,-11,2,-1,-4,-14
NC(=O)C1=C[C@@H](c2ccc(C(F)(F)F)cc2)C[C@@H](OCCCCO)O1,-16,i,-15,-7,1,2,-2,6
O=C(CCN1CCCCC1)NNC(=S)NC(=O)c1ccc(Br)cc1,-6,i,4,-2,3,6,33,·
O=C(CS(=O)(=O)Cc1ccccc1)Nc1nc2ccccc2s1,-74,i,0,-1,1,3,-4,-5
COc1ccc(S(=O)(=O)N2CCCC(C(=O)NCc3ccncc3)C2)cc1 (centres undefined),·,i,2,-12,1,-2,-5,-7
O=S(=O)(Cc1ccccc1)NCc1cccnc1,-25,i,2,·,0,4,2,-8
Cc1ccc(CCC(=O)NCc2ccccc2)o1,3,i,14,-7,-2,1,-2,-10
O=C1Nc2ccccc2/C1=N/N=C/c1ccc(-c2ccc([N+](=O)[O-])cc2)o1,-15,i,-3,·,-3,-3,38,·
CCn1c(SCC(=O)Nc2nc(-c3ccccc3)cs2)nc2c1c(=O)n(C)c(=O)n2C,18,i,15,-4,2,3,-3,2
O=C(c1ccc(S(=O)(=O)c2cccc(Cl)c2)c([N+](=O)[O-])c1)N1CCN(c2ccccn2)CC1,24,i,-2,51,-6,-26,-1,·
Cc1cc(C(=O)COC(=O)c2ccccc2O)c(C)n1Cc1cccs1,-127,i,-9,5,12,-15,-6,-38
COc1ccc(/C(O)=C2/C(=O)C(=O)N(Cc3cccnc3)C2c2ccco2)cc1OC (centres undefined),-85,i,-3,4,1,0,-7,-1
Fc1ccc(CSc2ncnc3sc4c(c23)CCCC4)cc1,37,i,-3,29,2,3,-4,-20
Cc1ccc(C2CCN(C(=S)Nc3cccc(Cl)c3)C2)cc1 (centres undefined),1,i,-8,32,2,1,-7,-14
CCCS(=O)(=O)Nc1c(C(=O)O)[nH]c2ccccc12,-3,i,4,-11,9,26,6,-15
CCOC(=O)c1c(N)sc2c1CCC(C)C2 (centres undefined),·,i,14,-10,-4,3,0,-9
Cc1cc(/C=N/NC(=O)C(O)(c2ccccc2)c2ccccc2)c(C)n1-c1ccccc1,-2,·,-3,2,-4,1,7,-15
N#C/C(=C\c1ccc(OCCN2CCOCC2)cc1)C(=O)Nc1ccc(S(N)(=O)=O)cc1,-7,i,-22,-10,-4,-2,-13,-6
CCc1nc(SCC(=O)Nc2ccc(Br)cn2)n[nH]1,10,·,8,3,-1,0,-5,-15
COc1cc(N)c(Cl)cc1C(=O)OCC(=O)N1CCCC1,-7,i,-3,·,-1,-1,-9,-14
Cc1cccc(C(=O)NNC(=O)CCCCC(=O)NNC(=O)c2cccc(C)c2)c1,-20,i,22,-2,1,5,-9,-11
# Next part.
SMILES,HIV Env fusion,Rce1 inh,PABP polyA inh,CSC inhib,MT1-MMP act inh,MT1-MMP act inh RFP,eIF4H inh,UUG fidelity
COc1ccc(/C=C2/C(=O)ON=C2C)cc1Br,10,i,13,5,0,7,-4,-12
CC(=O)N1C(C(=O)O)Cc2c([nH]c3ccccc23)C1C (centres undefined),6,i,4,·,1,5,-5,-11
Cc1cccc(C)c1NC(=O)C/C(N)=N/O,-34,i,-9,-11,-5,0,-3,-15
CC(=O)Nc1cccc(C(=O)/C=C/c2cccs2)c1,5,i,2,7,-2,-2,2,-10
CC(C)(C)C(=O)NCc1ccc(C(=O)CSc2nnc(C3CC3)n2C2CC2)s1,·,·,·,-4,-1,0,·,-14
CCCCn1c(N)c(N(CC(C)C)C(=O)CSCC(=O)Nc2cccc(C)c2)c(=O)[nH]c1=O,28,·,·,1,-3,-1,·,2
CC(C)OCCCNC(=O)c1cc(-c2cccnc2)nc2ccccc12,0,i,2,-11,2,0,-12,-11
CC(=O)Nc1ccc(SCCN2CC[C@@H](O)CCC2=O)cc1,-17,·,·,-10,4,4,·,7
Nc1nnc(CC(=O)N/N=C/c2ccc(-c3ccc(Cl)cc3Cl)o2)s1,4,i,-1,2,2,-3,4,·
CCCCCc1cc(=O)oc2c(C(CCN3CCCC(C)C3)c3ccc(N(C)C)cc3)c(OC)cc(OC)c12 (centres undefined),·,i,-15,109*,-7,-12,-11,-4
COc1ccccc1CCNC(=O)c1csc2c1CCCC2,-1,i,1,·,0,-3,-2,6
COc1ccc(C(=O)N2CCC2(C)C(=O)O)cc1F (centres undefined),14,·,·,·,4,16,·,-9
OCn1ncn(-c2ccccc2)c1=S,·,i,-11,1,10,4,-7,-18
CC(OC(=O)Cc1n[nH]c(=O)c2ccccc12)C(=O)Nc1ccc(Cl)cn1 (centres undefined),·,i,1,4,3,-3,1,-4
O=C(CCOc1ccccc1)NCc1ccccc1,5,i,-4,-3,1,6,-3,-25
O=C(COn1nnc2ccc(S(=O)(=O)N3CCOCC3)cc21)Nc1c(F)c(F)c(F)c(F)c1F,2,i,-9,-4,-2,-2,-9,1
CCOC(=O)N1CCN(C2CCCN(C(=O)c3ccccc3N(C)C)C2)CC1 (centres undefined),13,·,4,-3,0,1,-5,0
Cc1cc(NC(=O)c2ccc(C)s2)n(-c2nc3ccccc3[nH]2)n1,-17,i,-14,-2,-3,-5,-8,·
CCc1nnc(NC(=O)c2ccc(S(=O)(=O)N3CCCc4ccccc43)cc2)o1,·,i,-3,-13,-1,-1,17,·
O=C(Nc1ccc(F)cc1F)C1CCCN1S(=O)(=O)c1cccc2nsnc12 (centres undefined),1,i,6,·,-2,1,-4,-16
C[C@H](O)C#Cc1cnc2c(c1)C(=O)N([C@H](C)CO)C[C@@H](C)[C@@H](CN(C)Cc1ccc(-c3ccccc3)cc1)O2,4&-19[16.7 µM],·,·,·,-2,-1,·,5&4&19

# An excerpt from above in order of their number in UUG fidelity, smallest number first.
mol | HIV Env fusion | Rce1 inh | MT1-MMP act inh | MT1-MMP act inh RFP | UUG fidelity
CC(=O)N1C(C(=O)O)Cc2c([nH]c3ccccc23)C1C (centres undefined) | 6 | i | 1 | 5 | -11
CC(OC(=O)Cc1n[nH]c(=O)c2ccccc12)C(=O)Nc1ccc(Cl)cn1 (centres undefined) | · | i | 3 | -3 | -4
CCOC(=O)N1CCN(C2CCCN(C(=O)c3ccccc3N(C)C)C2)CC1 (centres undefined) | 13 | · | 0 | 1 | 0

# Source: PubChem BioAssay
